MT1-MMP promoter = inhibitors of MT1-MMP promoter transcription, cell-based, luciferase reporter, luminescence (AID 618); MT1-MMP promoter luciferase reporter cells, luminescence; calls from a first round at 10 µM; hits with a dose series show EC50 in µM; 87,000 tested, 0.62% active;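 active = over half of the reporter light lost at 10 µM or EC50 under 50 µM; inactive = the rest and hits that failed the dose series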;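 note: actives suppress MT1-MMP promoter-driven transcription so potencies describe inhibitors; HT1080 fibrosarcoma cells; overnight exposure; toxic or luciferase-blocking compounds were not removed from the actives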
Hsc70 ATP site = Hsc70 inhibitors, probe displacement, primary screen, biochemical, fluorescence polarization (AID 568); Hsc70 fluorescence polarization, probe displacement; higher % means a stronger effect; strong numbers were not always called active; displacement, % at 20 µM; hits with a dose series show IC50 in µM; 83,000 tested, under 10 active;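 active = displacement above 50% without optical interference and an IC50 on retest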;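 note: ATPase domain with a fluorescein-tagged ATP probe; 0% = vehicle and 100% = excess ADP; read after one hour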
WNV NS2B-NS3 inh = WNV NS2B-NS3 proteinase inhibition; P06935; WNV NS2B-NS3 protease, fluorogenic substrate Ex360/Em465; hits give low values; z-score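 (tested at a level between 10 and 100 µM)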; 65,000 tested, 0.18% active; AID 577;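 active = z-score at -3 or under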;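 note: score is relative to mean and spread of the compound wells of a plate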
Target sequence (P06935 1371-1501 limits assumed): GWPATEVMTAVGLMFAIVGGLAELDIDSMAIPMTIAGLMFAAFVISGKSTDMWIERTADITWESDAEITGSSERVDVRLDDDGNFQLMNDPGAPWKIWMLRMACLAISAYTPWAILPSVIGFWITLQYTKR
Target sequence (P06935 1502-1679 limits assumed): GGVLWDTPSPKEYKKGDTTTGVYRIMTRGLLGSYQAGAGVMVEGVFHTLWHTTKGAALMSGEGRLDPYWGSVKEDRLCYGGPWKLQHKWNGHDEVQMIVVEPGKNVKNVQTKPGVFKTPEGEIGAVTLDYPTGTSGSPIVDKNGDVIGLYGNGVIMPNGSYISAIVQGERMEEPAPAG
* marks the source's active call; other numbers are inactive results; i = inactive; / = not tested or not shown; + = active, no number.

compound,Hsc70 ATP site,MT1-MMP promoter,WNV NS2B-NS3 inh
CCc1cc2c(NCCC(=O)O)nc(C)nc2s1,-5.3%,i,0.71
CC(=O)C1=C(O)C(=O)N(CCc2c[nH]c3ccccc23)C1c1ccco1 (stereo not given),10%,i,1.5
c1cnc2ccc(C(c3nnnn3C3CCCC3)N3CCSCC3)cc2c1 (stereo not given),-4.2%,i,/
COc1ccccc1-c1nc(C#N)c(N2CCN(c3ccccc3)CC2)o1,3.2%,i,1.2
O=S(=O)(Nc1ccc2c(c1)OCO2)c1cccs1,-3.2%,i,-0.84
COc1ccc(C(=O)Nc2nc3ccc(S(C)(=O)=O)cc3s2)cc1,0.7%,i,/
CCOC(=O)c1cc2c(ccn2C)n1CC(=O)N1CCC(Cc2ccccc2)CC1,2.0%,i,-1.8
Cc1cc(C)n(-c2ccc(C(=O)Nc3nnc(C4CC4)s3)cc2)n1,-7.7%,i,-0.34
O=S(=O)(NCc1cccnc1)c1cccs1,-1.7%,i,-0.16
COc1cccc(NC(=O)COc2ccc(C)cc2)c1,1.6%,i,/
CCCN(CCC)CCCNS(=O)(=O)c1ccc2c(c1)oc(=O)n2C,-1.0%,i,-0.84
CCOc1ccc(S(=O)(=O)Nc2ccccn2)c2ccccc12,3.1%,i,/
O=C(NCc1ccc(N2CCCC2=O)cc1)NC1CCCCC1,0.7%,i,-0.62
Cc1c(C#N)c(N=CN(C)C)c(C(=O)c2ccccc2)n1-c1ccccc1,-1.1%,i,0.35
CCOC(=O)N1CCC(Nc2c(NCCCOC)c(=O)c2=O)CC1,-2.5%,i,-0.42
CCOc1ccc(-c2nnc(-c3cccs3)o2)cc1,-6.1%,i,/
Cc1nnc(NC(=O)Cn2cnc3c2c(=O)n(C)c(=O)n3C)s1,0.3%,i,/
O=C(C1CCCO1)N1CCN(Cc2nc3ccccc3c(=O)[nH]2)CC1 (stereo not given),0.0%,i,0.65
N#Cc1c(NC(=O)CN2CCN(C(=O)c3ccco3)CC2)sc2c1CCCCC2,-4.3%,i,-1.4
CCOC(=O)c1ccc(NC2OC(=O)c3ccccc32)cc1 (stereo not given),-2.7%,i,0.23
OCC12COC(c3ccccc3)N1C(c1ccccc1)OC2 (stereo not given),4.2%,i,1.8
CCC(Sc1nc2n[nH]c(C)c2c(=N)n1-c1ccc(C)c(Cl)c1)C(=O)N1CCOCC1 (stereo not given),-7.4%,i,1.4
CCOC(=O)CSc1nc2c(sc(=S)n2Cc2ccco2)c(=O)n1-c1ccc(F)cc1,-8.5%,i,1.2
O=C(Cc1sc(-c2ccccc2Cl)nc1-c1ccccc1)Nc1ccc(F)cc1,-4.1%,i,/
COc1ccc(Cn2nnnc2CN(Cc2cc3cc(C)ccc3[nH]c2=O)C2CCCC2)cc1,-7.7%,i,-0.92
C=CCn1c(=N)n(CC(O)COc2ccc(OC)cc2)c2ccccc21 (stereo not given),-1.0%,i,0.74
CCOc1ccccc1C(=O)N1CCOCC1,-2.4%,i,/
CCOCCCn1c(SCC(=O)NC(C)(C)C)nc2ccccc2c1=O,-4.3%,i,-0.24
CCC(C)Sc1nnc(Cc2cc(=O)[nH]c(=O)[nH]2)n1-c1ccc(F)cc1 (stereo not given),-3.8%,i,2
CC(C)Cn1c(N)c(C(=O)COC(=O)c2cc(-c3ccco3)nc3ccccc23)c(=O)n(C)c1=O,/,i,-1.6

Of the compounds above, these contain a halogen:
compound,Hsc70 ATP site,MT1-MMP promoter,WNV NS2B-NS3 inh
CCC(Sc1nc2n[nH]c(C)c2c(=N)n1-c1ccc(C)c(Cl)c1)C(=O)N1CCOCC1 (stereo not given),-7.4%,i,1.4
CCOC(=O)CSc1nc2c(sc(=S)n2Cc2ccco2)c(=O)n1-c1ccc(F)cc1,-8.5%,i,1.2
O=C(Cc1sc(-c2ccccc2Cl)nc1-c1ccccc1)Nc1ccc(F)cc1,-4.1%,i,/
CCC(C)Sc1nnc(Cc2cc(=O)[nH]c(=O)[nH]2)n1-c1ccc(F)cc1 (stereo not given),-3.8%,i,2

The results go on.
compound,Hsc70 ATP site,MT1-MMP promoter,WNV NS2B-NS3 inh
Cc1ccc2cc(CN(CC3CCCO3)S(=O)(=O)c3ccc4c(c3)OCCO4)c(=O)[nH]c2c1C (stereo not given),-0.2%,i,0.12
O=C(Nc1ccc2c(c1)OCCO2)C1CCC1,-3.3%,i,-0.67
O=C(CSc1nnc(-c2ccco2)o1)NC1CC2CCC1C2 (stereo not given),4.3%,i,0.26
CSc1ccccc1NC(=O)c1cnc2n(c1=O)CCS2,5.6%,i,0.44
CCCCN1C(=O)C2NN=C(C(=O)OCC)C2C1=O (stereo not given),4.1%,i,/
COc1ccc(-c2cnc(SCC(=O)Nc3nc(C(C)(C)C)cs3)n2Cc2ccco2)cc1,-16%,i,/
CCN(CC)CC(=O)Nc1nc(-c2ccc(Cl)cc2)cs1,0.7%,i,/
COC(=O)c1ccc(C(=O)OC)c(NC(=O)c2ocnc2C)c1,1.3%,i,0.02
CCN1CCN(c2cc(-c3ccccc3)nc3cc(-c4cccc(F)c4)nn23)CC1,-7.1%,i,/
CCc1cccc2c(C#N)cn(CCOc3ccccc3OC)c12,-20%,i,0.7
N#Cc1nc(-c2ccco2)oc1N1CCN(c2cccc(Cl)c2)CC1,-0.6%,i,0.28
Clc1ccc(N2CCN(c3ncnc4c3oc3ccccc34)CC2)cc1,-5.8%,i,-1.5
COc1ccccc1NC1=NC2(CCCC2)N=C(N)N1,0.9%,i,0.15
CC/C(=C\C(=O)c1cccnc1)Nc1ccc(C)c(C)c1,2.8%,i,-0.34
CC(C)(C)C1=Nn2c(nnc2-c2ccco2)SC1,-2.6%,i,0.56
C=CCSc1nnc(NC(=O)COc2ccc3ccccc3c2)s1,-3.4%,i,/
Cc1cnc(C(=O)Nc2ccccc2-c2ccc(C)o2)cn1,2.0%,i,0.35
Cn1c(SCC(=O)N2CCOCC2)nnc1-c1cccc(NC(=O)c2ccccc2F)c1,0.9%,i,-0.36
CCOC(=O)/C(C#N)=C/c1cc(C)n(-c2ccc(Br)cc2)c1C,-14%,i,/
CCCc1cc(C(=O)NCc2cccs2)no1,3.0%,i,0.76
C=CCOc1nc2c(c(=O)n(C)c(=O)n2C)n1Cc1c(Cl)cccc1Cl,-6.4%,i,-0.24
COc1ccccc1-c1cc(C(=O)NCCCn2ccnc2)no1,7.8%,i,-0.25
CC(C)Cn1cnc2sc3c(c2c1=N)CCCC3,4.5%,i,/
CCOc1ccccc1NC(=O)C1CCN(C(=O)NCc2ccccc2)CC1,3.4%,i,/
C=CCn1c(SCc2nc(N)nc(N(C)C)n2)nnc1-c1cccnc1,2.6%,i,-0.75
COCc1[nH]nc2c1C(c1ccc(OC)cc1)C(C#N)=C(N)O2 (stereo not given),-5.2%,i,-0.64
CCCOc1ccc2ccccc2c1/C=N/n1c(C)nnc1-n1nc(C)cc1C,3.8%,+,-0.52
CN1CCOCCOCCN(C)C1=O,2.7%,i,/
COc1cccc(N(C(=O)c2cccs2)c2nc3ccccc3s2)c1,5.8%,i,1.3
Nc1nc(N2CCCCC2)nc(N(c2ccccc2)c2ccccc2)n1,-0.6%,i,0.43

Brought forward from above: 4 entries, followed by the next part.
compound,Hsc70 ATP site,MT1-MMP promoter,WNV NS2B-NS3 inh
CCCOc1ccc2ccccc2c1/C=N/n1c(C)nnc1-n1nc(C)cc1C,3.8%,+,-0.52
CN1CCOCCOCCN(C)C1=O,2.7%,i,/
COc1cccc(N(C(=O)c2cccs2)c2nc3ccccc3s2)c1,5.8%,i,1.3
Nc1nc(N2CCCCC2)nc(N(c2ccccc2)c2ccccc2)n1,-0.6%,i,0.43
Cc1cc(=O)[nH]c(N2CCN(C(c3ccccc3)c3ccccc3)CC2)n1,-3.2%,i,-0.63
O=C(CSc1nnc(-c2ccc(O)cc2)n1Cc1ccco1)c1cccs1,-3.6%,i,0.31
Cc1ccc(SCCCn2cncn2)cc1,-5.3%,i,0.77
CCn1c(SCC(=O)Nc2ccc3c(c2)OCCO3)nnc1-c1ccco1,-2.6%,i,0.18
C=C(C)CNC(=S)/N=c1\scc(C)n1CC,7.4%,i,/
COc1ccc(N2CCN(C(c3cc4ccc(C)cc4[nH]c3=O)c3nnnn3C3CCCC3)CC2)cc1 (stereo not given),-3.5%,i,-0.6
CCn1cc(C(=O)NC2CCCCCC2)c(=O)c2cc(S(=O)(=O)N3CCCCC3)ccc21,4.7%,i,-1.2
CCOc1ccc(C(=O)c2cccs2)cc1,1.0%,i,-0.48
COc1ccc(CCNC(=O)c2ccc(=O)[nH]n2)cc1OC,2.8%,i,-0.52
CC1CCCC(C)N1C(=O)COc1ccc(-c2nnco2)cc1 (stereo not given),-1.2%,i,-1
Cc1ccc(CSc2nc3c(cc2C#N)CCC3)cc1,9.9%,i,/
COc1ccc(CN(CC2CCCO2)C(=O)CN2C(=O)C(C)Oc3ccc(C)cc32)cc1OC (stereo not given),-2.3%,i,/
COc1cc(S(=O)(=O)N2CCN(C)CC2)c(OC)cc1Br,-2.1%,i,-1.1
CCOc1ccccc1NC(=O)C1CCN(S(=O)(=O)c2cccc3cccnc23)CC1,-4.4%,i,-1.7
CC(=O)NC(NC(C)=O)c1ccc(N(C)C)cc1,2.7%,i,1.6
Cc1noc(C)c1C(=O)Nc1sc2c(c1C(N)=O)CCC2,2.7%,i,-1.2
Cc1cnc(NC(=O)Cc2c[nH]c3ccccc23)s1,1.1%,i,/
Cc1c(C(=O)OCCN2CCCCC2)oc2ccccc12,4.3%,i,-0.44
Cc1nn(-c2ccccc2)c(Cl)c1C1C(C#N)=C(N)Oc2n[nH]c(C)c21 (stereo not given),3.9%,i,1.1
COC(=O)CNC(=O)C(Cc1c[nH]c2ccccc12)NC(=O)OC(C)(C)C (stereo not given),-1.9%,i,-0.31
COc1cc(C2Nc3cccc4cccc(c34)N2)cc(OC)c1O,-4.3%,i,0.15
O=C(c1ccc2c(c1)OCCO2)N1CCCCC1,-0.3%,i,0.11
Cc1ccc(C(=O)Oc2ccc(C(=O)COC(=O)c3cnccn3)cc2)cc1,-3.2%,i,/
CC[N+]1(CC)CC2=Cc3c(ccc4ccccc34)CC2C1 (stereo not given),-4.3%,i,/
CC(C)(C)c1ccccc1OCCOCCSc1ncccn1,-2.1%,i,/
Nc1nonc1-c1noc(-c2ccc(Br)o2)n1,3.6%,i,0.53
Cc1cc(C(F)(F)F)nc(SCC(=O)NC2=NC(=O)C(C)S2)n1 (stereo not given),-2.0%,i,1.3
COc1ccc(CN2CCN(c3ccccn3)CC2)cc1OCc1ccccc1,3.7%,i,-0.4
NS(=O)(=O)c1ccc(CCNC(=O)Nc2ccc(Cl)c(Cl)c2)cc1,1.6%,i,/
CC(C)(C)n1nnnc1C(c1cccs1)N1CCN(Cc2ccccc2)CC1 (stereo not given),-1.1%,i,0.26

Whole records as entered above.
Record of Cc1cnc(NC(=O)Cc2c[nH]c3ccccc23)s1 = Hsc70 ATP site = 1.1%; MT1-MMP promoter = i; WNV NS2B-NS3 inh = /
Record of Cc1ccc(CSc2nc3c(cc2C#N)CCC3)cc1 = Hsc70 ATP site = 9.9%; MT1-MMP promoter = i; WNV NS2B-NS3 inh = /

Next section.
compound,Hsc70 ATP site,MT1-MMP promoter,WNV NS2B-NS3 inh
COc1ccc(CN2CCN(S(=O)(=O)c3ccc(C)cc3)CC2)cc1Br,3.2%,i,/
O=C(Nc1nnc(-c2ccc(Cl)cc2)o1)NC1CCCCC1,5.6%,i,/
Cc1nc2ccccc2c(=O)n1NC(=O)c1ccco1,2.4%,i,/
CC(=O)Nc1ccc(NS(=O)(=O)c2ccc(Cl)c(C(=O)O)c2)cc1,5.9%,i,0.51

Quoted at random: three entries already listed, in no set order.
compound,Hsc70 ATP site,MT1-MMP promoter,WNV NS2B-NS3 inh
COc1ccc(CN2CCN(S(=O)(=O)c3ccc(C)cc3)CC2)cc1Br,3.2%,i,/
Cc1nc2ccccc2c(=O)n1NC(=O)c1ccco1,2.4%,i,/
CC(=O)Nc1ccc(NS(=O)(=O)c2ccc(Cl)c(C(=O)O)c2)cc1,5.9%,i,0.51

An excerpt; the hit share may differ from the screen's.
